Screens as filed in PubChem.
RecA intein inh: blocks M. tuberculosis RecA intein splicing; P9WHJ3; cell-free RecA intein splicing, fluorescence; inhibition, %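 (about 9 µM by stock and volumes)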; actives 0.75% (n = 290,000); AID 2221; in the data active = inhibition above about 30%; inconclusive = no clear call, values can overlap the other calls;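 note: 0% = vehicle wells and 100% = reference inhibitor control wells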
Target sequence (P9WHJ3 whole entry, looked up): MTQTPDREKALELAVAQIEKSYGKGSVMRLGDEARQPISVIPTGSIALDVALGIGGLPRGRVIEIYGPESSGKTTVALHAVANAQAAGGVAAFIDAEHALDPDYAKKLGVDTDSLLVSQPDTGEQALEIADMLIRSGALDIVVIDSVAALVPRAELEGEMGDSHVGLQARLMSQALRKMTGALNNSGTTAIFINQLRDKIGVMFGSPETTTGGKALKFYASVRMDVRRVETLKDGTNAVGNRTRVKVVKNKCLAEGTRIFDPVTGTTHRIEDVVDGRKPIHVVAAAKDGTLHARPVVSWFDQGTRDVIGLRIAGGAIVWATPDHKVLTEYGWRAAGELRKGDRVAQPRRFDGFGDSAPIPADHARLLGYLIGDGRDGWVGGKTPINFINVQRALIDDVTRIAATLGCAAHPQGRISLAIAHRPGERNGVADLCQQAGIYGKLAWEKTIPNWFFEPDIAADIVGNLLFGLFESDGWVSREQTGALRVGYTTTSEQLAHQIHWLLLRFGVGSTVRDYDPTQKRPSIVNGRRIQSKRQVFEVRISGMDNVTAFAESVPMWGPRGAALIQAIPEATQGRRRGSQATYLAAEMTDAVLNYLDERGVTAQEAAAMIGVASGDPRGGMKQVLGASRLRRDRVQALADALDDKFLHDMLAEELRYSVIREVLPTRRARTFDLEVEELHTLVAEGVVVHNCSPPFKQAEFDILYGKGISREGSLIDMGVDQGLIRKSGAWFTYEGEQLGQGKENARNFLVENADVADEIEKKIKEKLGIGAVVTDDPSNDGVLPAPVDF
Mtb bLac sens: beta-lactam sensitization of Mtb H37Rv; AID 434955; actives 0.27% (n = 330,000); inhibition, % at 25 µM; M. tuberculosis H37Rv growth with meropenem, percent inhibition; hits of this screen are not shown here;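 active = about 74% or more and at least 40 points above the plate without the antibiotic, then above 30% in a dose series; inconclusive = first-round hits that could not be retested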;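 note: growth measured after seven days incubation then overnight dye step; 0% = bacteria only wells and 100% = bacteria with antibiotic; twin plates without the antibiotic show which effects depend on it; some results filed as inactive read as strong as hits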
Mtb H37Rv: M. tuberculosis H37Rv growth inhibitors, H37Rv strain (AID 1626); M. tuberculosis H37Rv growth inhibition; higher % means a stronger effect; inhibition, % at 10 µM, or IC50 in µM where a hit was titrated; actives 0.95% (n = 220,000);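 active = confirmed in a dose series; inconclusive = inhibition above 80% but not taken into the dose series; inactive = below 80% or under 30% at every dose of the series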;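 note: bacteria incubated seven days before Alamar blue readout; 0% = bacteria only wells and 100% = bacteria with antibiotic wells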
Arbovirus inh: arbovirus infection inhibition; arbovirus infection cell-based antiviral screen; AID 1251; actives 0.37% (n = 200,000); inhibition, % at 10 µM;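 active = inhibition from about 30%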;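 note: bluetongue infection of BSR cells; cell survival read as ATP light after 72 h; 0% = infected wells without compound and 100% = uninfected wells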
YopH inh: blocks Yersinia enterocolitica YopH tyrosine phosphatase. fluorescence Ex485/Em525. inhibition, %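 (about 10 µM by stock and volumes)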. actives 0.16% (n = 140,000). AID 898;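 active = inhibition of 50% or more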;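 note: controls were vehicle for no effect and minimum signal wells for full effect; inactives centre near -20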
Arbovirus inh repeat: recorded beside Arbovirus inh, whose call it bears; inhibition, %; measured here: 10K subset replicate screen; many hits read low in the repeat;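 first of two repeat runs on a subset; 0% = infected and 100% = uninfected wells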
* hit, by the source's call; ? = inconclusive; · = not tested or not shown.

SMILES	RecA intein inh	Mtb bLac sens	Mtb H37Rv	Arbovirus inh	YopH inh	others
CC(c1ccon1)N(C)C(=O)CCc1nnc(CCCCc2ccccc2)o1 (stereo not drawn)	1.5	2	0%	1	·
CCOC(=O)CSc1nc(-c2ccccc2)cc(C(F)(F)F)n1	4.0	89	7%	1	-6
COc1cc2c(cc1NC(=O)Nc1ccc(F)cc1)oc1ccccc12	4.1	1	3%	-13	-25
Cc1ccc(SCC(=O)OCC(=O)NC2(C#N)CCCCC2)cc1	0.0	-2	·	·	·
CC1c2ccccc2SC(CCCN(C)C)c2ccccc21 (stereo not drawn)	0.6	3	1%	-32	-20
N#CCCN1CCN(S(=O)(=O)c2cc(Cl)ccc2Cl)CC1	-3.1	-2	0%	0	·
COC(=O)c1ccc(CN2CCN(Cc3ccc(C(=O)OC)o3)CC2)o1	-0.9	-5	-17%	0	-13
CCCC(=O)Nc1nc2n(n1)C(c1ccccc1)CC(=O)N2 (stereo not drawn)	-3.7	14	-2%	5	-19
CCOC(=O)N1CCN(S(=O)(=O)N2CCCC(C(=O)NCCc3ccc(C)cc3)C2)CC1 (stereo not drawn)	-3.4	5	·	·	·
NCCCCCC(=O)N/N=C/c1coc2ccccc2c1=O	-4.7	-4	-3%	·	·
CCn1c(C)[n+](CC)c2ccc(S(=O)(=O)N(C)C)cc21	-2.0	-8	-3%	2	·
O=c1[nH]c(C2CCCN(S(=O)(=O)c3ccccc3)C2)nc2c1nnn2Cc1ccc2c(c1)OCCO2 (stereo not drawn)	-0.2	8	·	·	·
CCOC(=O)c1c(/N=C/N(C)C)sc(/C=N/Nc2ccccc2)c1-c1ccc(Cl)cc1	-7.4	88	?	-32	-37
COc1ccc(/C=N/NC(N)=S)cc1	2.2	96	-4%	·	·
O=C(CCc1ccccc1)NNC(=S)NC(=O)c1ccccc1	9.7	97	59%	-29	-28
CCN(CC)CCN(C(=O)c1ccccc1OC)c1nc2ccc(F)cc2s1	3.7	0	1%	8	·
Cc1c(C#N)c(O)n(C)c(=O)c1N=Nc1ccc(S(N)(=O)=O)cc1	-0.5	·	1%	7	·
COc1c(C)cc(Br)cc1C(=O)O	0.4	-1	0%	17	-10
Cc1cc(C)c(NC(=O)COc2nncc3ccccc23)c(C)c1	0.5	2	4%	-12	-6
O=C(CCSCCc1ccccn1)Nc1c(F)c(F)c(F)c(F)c1F	-2.9	4	-5%	1	-14
CCOC(=O)Cn1cnc2c(C#N)c3n(c2c1=O)CCCCC3	-2.0	-3	-4%	3	-45
CCOC(=O)C1CCN(C(=O)CN(Cc2ccccc2)S(C)(=O)=O)CC1	-1.0	-3	-1%	11	13
COc1ccc(CCNC(=O)CCCc2nnc3n(C)c(=O)c4sccc4n23)cc1OC	-11	0	·	·	·
O=C(NCCC1=CCCCC1)c1ccc(Cl)c(S(=O)(=O)N2CCCCC2)c1	-1.2	-30	·	·	·
CCOC(=O)C1CCN(S(=O)(=O)C(F)(F)c2nc3ccccc3s2)CC1	3.1	3	-10%	9	-30	Arbovirus inh repeat=1
Cc1ccc(S(=O)(=O)Oc2ccc(/C=N/NC(=O)c3nn(C)cc3Cl)cc2)cc1	-0.2	-1	-5%	-3	-16
Cc1ccc(S(C)(=O)=NC(=O)NC(=O)c2c(F)cccc2Cl)cc1 (stereo not drawn)	-1.2	-8	-4%	·	·
Cc1ccc(Nc2nc(/N=C/NO)n[nH]2)cc1C	-0.2	-4	1%	-1	·
c1ccc(Cn2c(SCc3cn4cccnc4n3)nnc2-c2ccco2)cc1	0.2	-10	-7%	7	-41
CCOC(=O)C1Nc2ccc(C(F)(F)F)cc2C2c3ccccc3CC12 (stereo not drawn)	24	0	-7%	·	·
NC(=O)N/N=C/c1c(O)ccc2oc3c(c12)CCCC3	0.0	8	0%	·	·
Cc1cc(C(=O)N/N=C/c2cc(Br)ccc2OC(=O)c2ccc(Br)cc2)n[nH]1	0.5	6	-3%	-23	-16
COc1ccccc1/C=N/Nc1nncc2ccccc12	-5.6	-4	2%	1	-25
NS(=O)(=O)c1ccc(CCNC(=O)CSc2nc3ccsc3c(=O)n2CC(=O)O)cc1	1.3	3	-4%	-7	-40
CCOC(=O)C1(CCOc2ccccc2)CCN(Cc2ccc(CO)o2)CC1	-0.5	-1	1%	-10	·
O=C(NCCCN=C1NS(=O)(=O)c2ccccc21)c1ccco1	-2.9	1	-4%	6	-13
COC(=O)C(CC(=O)c1cccc(OC)c1)c1ccc(F)cc1 (stereo not drawn)	4.7	-1	2%	-3	·
COc1ccc(C(=O)NCCc2nnc3ccc(SCC(=O)NCc4ccc(F)cc4)nn23)cc1	1.8	1	·	·	·
CCN1C(=S)N[C@@H](CCc2ccccc2)C(C(=O)OC)=C1C	2.4	-12	·	·	·
CCC1(c2ccccc2)NC(=O)N(CC(=O)NCc2ccc(OC)cc2)C1=O (stereo not drawn)	-0.8	-4	·	·	·
Cc1ccc(C(=O)n2nc(C#N)c(C#N)c2N)cc1	-1.0	0	3%	·	·
C=CCN(c1nc(C)cc(OC)n1)S(=O)(=O)c1ccc(C)cc1	5.7	3	·	·	·
CCN1C(=O)[C@H]2[C@@H](c3ccc(-c4ccc5c(c4)OCO5)cc3)N3CCC[C@@]3(C(=O)OC)[C@H]2C1=O	-1.2	20	·	·	·
Cc1ccc(-n2nc3c(c2NC(=O)c2ccc(S(=O)(=O)N4CCOCC4)cc2)CSC3)c(C)c1	·	2	-4%	7	-18
CC(C)Nc1nc(Oc2cccc(Cl)c2Cl)cc(C(F)(F)F)n1	3.5	0	·	9	-23
CCN(C(=O)Cc1c(C(=O)O)n(CC)c2ccccc12)c1cccc(C(F)(F)F)c1	0.4	8	·	·	·
N#Cc1c(-c2ccccc2)cc(C2CC2)nc1N	0.7	-12	-1%	-4	-26
NC(=O)c1ccc(Br)c(S(=O)(=O)N2CCCCC2)c1	-5.3	-4	-2%	10	-25
CCOC(=O)C(CCCCCCP(=O)(c1ccccc1)c1ccccc1)NC(C)=O (stereo not drawn)	0.4	-6	-7%	·	·
Nc1nc(SCC(=O)N2CCCC2)[nH]c(=O)c1-c1ccccc1	1.7	21	6%	7	-29
Cc1ccc(OCC(=O)NCc2ccccc2)c([N+](=O)[O-])n1	-0.7	1	5%	-5	-17
CCOC(=O)CNC(=O)CSc1nc2c(C)cccc2cc1CC	-0.8	38	-3%	-3	·
O=C(NCc1ccc2c(c1)OCO2)C1CCCN1S(=O)(=O)c1ccc(Cl)cc1 (stereo not drawn)	4.3	-13	2%	-27	·
COC(=O)c1ccc(OCCCCN2CC(C)OC(C)C2)cc1 (stereo not drawn)	-2.0	-1	2%	-7	·
Cc1ccc([N+](=O)[O-])cc1NC(=O)C[n+]1ccccc1	3.1	-1	-5%	26	·
COc1ccccc1NC(=O)/C=C/c1ccc2c(c1)OCO2	-0.2	15	6%	-8	·
COc1ccc(-c2ccnc3nc(/N=C/N(C)C)nn23)cc1	0.1	-4	-7%	3	·
O=C(Cn1nc(C(=O)O)c2ccccc2c1=O)Nc1ccc(F)cc1F	0.2	1	·	·	·
CCOC(=O)N1CCN(c2c(N3CCc4ccccc4C3)c(=O)c2=O)CC1	·	3	7%	3	-39
COCCCn1c(N)c(C(=O)Nc2sc3c(c2C(=O)OC)CCCC3)c2nc3ccccc3nc21	5.2	8	3%	0	-34
(further entries)
SMILES	RecA intein inh	Mtb bLac sens	Mtb H37Rv	Arbovirus inh	YopH inh	others
CC(NC(=O)CN1C(=O)COc2ccccc21)c1ccccc1 (stereo not drawn)	1.9	2	2%	4	-44
Nc1ccc2oc(-c3cccs3)nc2c1	0.1	95	24%	-11	-59
COc1cccc(-n2nnc3c(=O)n(Cc4ccc(Cl)cc4)cnc32)c1	-0.3	·	4%	6	-43
Cc1cc(C(F)(F)F)n2nc(-c3cnn(C)c3C(F)(F)F)cc2n1	-0.2	-4	-8%	4	-40
O=C(Cc1ccc(Cl)cc1)N1CCN(c2ccc(F)cc2)CC1	-0.4	6	·	·	·
COc1cccc(C(=O)CSc2nnc(COc3cccc4cccnc34)o2)c1	13	8	3%	6	-33
COC(=O)c1cc(C(=O)NCCC(C)C)cc([N+](=O)[O-])c1	-2.0	1	-1%	1	·
CC1(C)CC(=O)C=C(N2CCCC2)C1	0.8	3	-8%	2	-23
CCn1ncc(/C=C/C(=O)c2ccccc2)c1C	0.5	-7	6%	-1	-23
CC1(C)CC(CCNC(=O)c2ccco2)CC(C)(C)N1	-2.1	-6	-11%	-1	-27
O=C(N/N=C/c1cc(Cl)ccc1O)c1ccccc1Br	6.9	3	-2%	-15	·
O=C(NCCc1ccc(Cl)cc1)C1CCC(=O)N(C2CCCCCC2)C1 (stereo not drawn)	1.5	-1	·	·	·
Cc1cc(OCC(=O)Nc2ccc(N3CCN(C)CC3)cc2)ccc1Cl	1.0	?	·	·	·
COc1ccc(C(=O)NCCN2CCCC2)cc1OC	-1.4	4	-12%	5	2
Cc1ccc2cc(CN(CC(C)C)S(=O)(=O)c3ccccc3)c(=O)[nH]c2c1	-0.6	-2	·	·	·
CCCOc1ccc(C(C)(O)CN2CCOCC2)cc1 (stereo not drawn)	-0.1	-11	-7%	2	-19
COc1ccc2nc3c(nc2c1)CCCC3	1.7	-4	·	·	·
Cc1nc2scc(C)n2c(=O)c1S(=O)(=O)NCCc1ccc(Cl)cc1	-0.9	-1	·	·	·
O=C(C[n+]1cc(-c2ccccc2)n2c1CCCCC2)c1ccc(Br)cc1	2.1	1	10%	-11	·
Cc1c(Cc2ccccc2)c(NCCCO)n2c(nc3ccccc32)c1C#N	-27	100	2.9µM*	·	·
CCCc1c(C(=O)O)cnn1-c1ccc(Cl)cc1	-0.6	8	-1%	·	·
CSc1ccccc1C(=O)Nc1nc2ccccc2c(=O)[nH]1	-0.4	-5	-4%	-1	·
CCCn1c(SCC(=O)Nc2nccs2)nnc1-c1cccnc1	1.1	0	9%	-2	-4
Cn1ccnc1SCC(=O)Nc1sccc1C#N	0.6	-5	5%	4	0

The list goes on (6 carried over from the part before).
SMILES	RecA intein inh	Mtb bLac sens	Mtb H37Rv	Arbovirus inh	YopH inh	others
O=C(C[n+]1cc(-c2ccccc2)n2c1CCCCC2)c1ccc(Br)cc1	2.1	1	10%	-11	·
Cc1c(Cc2ccccc2)c(NCCCO)n2c(nc3ccccc32)c1C#N	-27	100	2.9µM*	·	·
CCCc1c(C(=O)O)cnn1-c1ccc(Cl)cc1	-0.6	8	-1%	·	·
CSc1ccccc1C(=O)Nc1nc2ccccc2c(=O)[nH]1	-0.4	-5	-4%	-1	·
CCCn1c(SCC(=O)Nc2nccs2)nnc1-c1cccnc1	1.1	0	9%	-2	-4
Cn1ccnc1SCC(=O)Nc1sccc1C#N	0.6	-5	5%	4	0
O=C(NC1CCS(=O)(=O)C1)c1ccc(-c2ccc(Br)cc2)o1 (stereo not drawn)	0.8	8	·	0	-16
CC(C)CN=c1cc(-c2ccccc2)oc2ccc(Cl)cc12	·	37	11%	-16	-16
CC1CCN(S(=O)(=O)c2ccc(Oc3ccc([N+](=O)[O-])cc3)cc2)CC1	0.2	14	·	13	-10
CC(=O)Nc1cccc(Oc2ccc([N+](=O)[O-])cc2Cl)c1	-0.2	-9	3%	0	·
COc1cccc(Nc2nc(N)nc(CCl)n2)c1	15	98	76%	·	·
O=C(Cn1cnc2ccccc2c1=O)N1CCOCC1	-4.9	0	1%	12	-44
COc1ccc(CCNC(=O)/C=C/c2ccc(OC)c(S(=O)(=O)N3CCOCC3)c2)cc1	-0.2	-6	-1%	·	·
Cc1sc2nc(CN3CCCCC3)nc(Nc3ccc4c(c3)OCCO4)c2c1C	-1.3	0	4%	-9	·
COC(=O)c1c(/N=C/N(C)C)sc2c1CCN(c1ncc(C(F)(F)F)cc1Cl)C2	-44	-11	4%	9	-25
Cc1nc2sc(-c3ccccc3)nn2c(=O)c1Br	-5.0	0	-2%	3	-8
CNC(=S)N(Cc1cc2cc(C)ccc2n2nnnc12)CC(C)(C)CN(C)C	-1.8	-11	·	·	·
CC(C)NC(=O)C1CCN(S(=O)(=O)c2ccc(N3CCCC3=O)cc2)CC1	0.4	-3	·	·	·
O=C(/C=C/c1ccco1)Nc1ccccc1N1CCOCC1	0.6	-4	5%	3	-20
S=c1[nH]nc(-c2ccncc2)n1Cc1ccccc1	-1.2	-1	-9%	5	-37	Arbovirus inh repeat=1

2 records picked at random from the list so far, as already listed:
SMILES	RecA intein inh	Mtb bLac sens	Mtb H37Rv	Arbovirus inh	YopH inh	others
CNC(=S)N(Cc1cc2cc(C)ccc2n2nnnc12)CC(C)(C)CN(C)C	-1.8	-11	·	·	·
CC(C)CN=c1cc(-c2ccccc2)oc2ccc(Cl)cc12	·	37	11%	-16	-16

These rows are one share of the data; count on the stated rates, not on these rows.
